# ClpP mod: qHTS Assay for Activators of ClpP. purified B. subtilis ClpP, FRET peptide cleavage, 20 min. Potency, µM (doses to about 57.5 µM), for inactives: at the top dose activity change, negative = active. 340,000 tested, 1.9% active; active = well fitted falling curve with a large enough effect; inconclusive = small, poorly fitted or top-dose-only effect; inactive = no such curve, though single readings can be large or run the other way; further: the source files actives as falling curves though it sought activators and does not explain the sign; nearly all actives have a fitted effect of over 65% in size; many hits overshoot -100%
# Target sequence (P80244 whole entry, looked up): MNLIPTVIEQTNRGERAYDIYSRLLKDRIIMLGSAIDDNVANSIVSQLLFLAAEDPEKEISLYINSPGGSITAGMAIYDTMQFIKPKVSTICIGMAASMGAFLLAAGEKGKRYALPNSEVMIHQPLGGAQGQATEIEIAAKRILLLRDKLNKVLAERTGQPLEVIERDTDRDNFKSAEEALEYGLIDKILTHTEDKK
#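 FRET quenching reversal measured ClpP activation: 10 microg/mL B. subtilis ClpP at pH 8 with the FRET-FV decapeptide, read at 430 nm after 320 nm excitation. The 20-min minus 0-min signal was scaled between DMSO/no-enzyme wells and ADEP (5.8 microM final).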
# An asterisk follows results filed as active; ? = inconclusive. Potency means the concentration at half of the fitted maximal effect. A portion of the library; rates above refer to the full screens.
# The first three entries, ahead of the listing:
no.	Compound	ClpP mod
1	O=C(c1ccc2c(c1)OCCO2)N(Cc1cccnc1)c1nc2c(Cl)cccc2s1	?
2	Cc1cccc(NC(=O)CSc2nnc3c4ccccc4n(C)c3n2)c1	-0.3%
3	Cc1ccc(-n2ncc(C(=O)NCCc3ccsc3)c2C2CCN(C(=O)OC(C)(C)C)CC2)c(C)c1	1.9%

# The listing, from the start:
no.	Compound	ClpP mod
1	O=C(c1ccc2c(c1)OCCO2)N(Cc1cccnc1)c1nc2c(Cl)cccc2s1	?
2	Cc1cccc(NC(=O)CSc2nnc3c4ccccc4n(C)c3n2)c1	-0.3%
3	Cc1ccc(-n2ncc(C(=O)NCCc3ccsc3)c2C2CCN(C(=O)OC(C)(C)C)CC2)c(C)c1	1.9%
4	COc1ccc(C(=O)Nc2ccc(OCc3cc(=O)n4ccsc4n3)cc2)cc1OC	4.4%
5	Cc1cc(C)c(NC(=O)Cn2nnc(-c3ccccc3)n2)c(C)c1	0.2%
6	CCc1ccccc1NC(=O)Cn1cc(C(=O)c2ccncc2)c(=O)c2cc(C)ccc21	-4.6%
7	Cc1cc[n+](C2CCCCC2)c2ccccc12	-2.7%
8	COc1ccc(Nc2nnc(-c3ccc(C)c(S(=O)(=O)N4CCN(C)CC4)c3)c3ccccc23)cc1	0.6%
9	CC(C)NC(=O)CN1C(=O)COc2ccc(S(=O)(=O)N3CCCCCC3)cc21	-1.6%
10	Cc1ccccc1CS(=O)(=O)CC1Nc2ccc(C(=O)NCc3ccc(Cl)cc3)cc2NC1=O (centres undefined)	?
11	CCc1ccccc1NC(=O)CC(C)S(=O)(=O)c1ccc2c(c1)NC(=O)CO2 (centres undefined)	-2.3%
12	Cc1ccccc1NC(=O)C(Cc1ccccc1)N1Cc2ccccc2C1=O (centres undefined)	-0.6%
13	Cc1ccc(CSc2nc(-c3ccc(C(C)(C)C)cc3)nc3cc(=O)[nH]n23)cc1	0.1%
14	COC(=O)c1c(NC(=O)c2ccc(Cl)c(Cl)c2)sc2c1CCCC2	-1.6%
15	Cc1ccc(CNC(=O)c2ccc3nc(SCc4ccc(F)cc4)[nH]c3c2)cc1	-2.4%
16	CCCSCCCNC(=O)Cn1c(-c2cccs2)cc2ccccc21	28µM*
17	COC(=O)CN1C(=O)CSc2ccc(S(=O)(=O)Nc3ccc(F)c(Cl)c3)cc21	2.3%
18	O=C(COc1ccc2ccccc2c1)NC1CC(=O)N(c2ccc(F)cc2)C1 (centres undefined)	-2.1%
19	Cc1cc(/C=C/c2ccnc3ccccc23)ccc1N(C)C	-1.4%
20	Cc1cc(Cl)ccc1NC(=O)CN1C(=O)COc2ccc(S(=O)(=O)Nc3ccccc3)cc21	1.0%
21	CCc1cccc(-n2c(=O)c3cccnc3n2CC(=O)NCc2ccc(C)cc2)c1	4.3%
22	Cc1nnc(N2CCC(C(=O)NCCC(C)C)CC2)c2nn(-c3ccc(Cl)cc3)c(C)c12	-29%
23	CCOC(=O)CNC(=O)c1cc2c(=O)n(CC)c3ccccc3c2s1	4.3%
24	CCN(Cc1ccccc1)C(=O)c1cc(-c2ccccc2)n[nH]1	-1.8%
25	CC1Cc2[nH]c(=S)[nH]c(=O)c2C(C)O1 (centres undefined)	0.4%
26	CCOc1ccc(-c2nc(SCC(=O)NC3CCCC3)c(-c3ccccc3)[nH]2)cc1OC	-22%
27	Cc1csc2nc(COc3ccc(NC(=O)COc4ccc(F)cc4)cc3)cc(=O)n12	13%
28	Cc1ccc(-c2nc(CNC(=O)NC3CCCCC3)c(C)o2)cc1	-0.3%
29	COc1ccc(NC(=O)c2ccc(CN3C(=O)CCn4nc(C)cc43)cc2)c(OC)c1	1.9%
30	CC1CCCCN1C(=O)c1cc(-c2ccc(Br)cc2)on1 (centres undefined)	0.2%
31	COc1ccc(CCNC(=O)c2c(C)oc3ncnc(N4CCOCC4)c23)c(OC)c1	-1.0%
32	O=S(=O)(c1ccccc1C(F)(F)F)N1CCN(c2nc(-c3cccs3)nc3ccccc23)CC1	4.1%
33	COc1cccc(C(=O)n2nc(-c3ccco3)nc2NCc2cccs2)c1	11%
34	CC(=O)N1CCc2c(sc3c2c(=O)n(-c2ccccc2Cl)c(=O)n3Cc2cccc(C)c2)C1	0.4%
35	CC(C)C(NS(=O)(=O)c1ccc2c(c1)oc(=O)n2C)C(=O)NCCc1ccc(Cl)cc1 (centres undefined)	0.3%
36	O=C(CN1C(=O)COc2ccc(Cl)cc21)Nc1cccc(C(=O)O)c1	-0.9%
37	Oc1cc2cc(-c3csc(-c4ccc(F)cc4)n3)cc3c2n1CCC3	-7.1%
38	COc1ccc(-n2nc3cc(C)c(NC(=O)COc4cccc(C)c4)cc3n2)cc1	4.4%
39	O=C(CCS(=O)(=O)c1nc(-c2ccc3c(c2)OCO3)cc(C(F)(F)F)n1)Nc1ccc(F)c(Cl)c1	4.5%
40	O=C(Cn1cc(S(=O)(=O)c2ccccc2)c(=O)c2cc3c(cc21)OCO3)Nc1ccc(Cl)cc1	-12%
41	CN(C)c1ccc(Cn2ccc3ccccc32)cc1	-11%
42	CC(=O)c1ccc(N2CCN(C(=O)CS(=O)(=O)c3cccc4nsnc34)CC2)cc1	-5.0%
43	CCOC(=O)C1CCCN(c2nc3c(S(=O)(=O)c4ccc(Br)cc4)nnn3c3ccsc23)C1 (centres undefined)	11µM*
44	Cc1cc(N2CCC(C)CC2)nc2ccc(NC(=O)/C=C/c3cccc(Cl)c3)cc12	-0.8%
45	CCOC(=O)c1c(C)[nH]c(CCC(=O)NCCCN2CCN(c3ccccc3F)CC2)c1C	-0.5%
46	CCCCCOc1ccc(C(=O)N(Cc2ccccc2)C2CCS(=O)(=O)C2)cc1 (centres undefined)	0.2%
47	CCOc1cc(C(=O)Nc2ccc(NC(=O)c3cc4ccccc4o3)c(OC)c2)cc(OCC)c1OCC	-6.5%
48	O=C(NC1CC(=O)N(c2cccc(F)c2)C1)c1cccs1 (centres undefined)	1.0%
49	CCc1nc2ccc(C(=O)NCc3ccc(SC)cc3)cc2nc1CC	1.0%
50	Cc1cc[n+](C2CCCCC2)cc1	-7.9%
51	Cc1ccc2oc(-c3cccc(NC(=O)Cc4ccc(Cl)cc4)c3)nc2c1	-5.3%
52	Cc1ccc(C)c(N2CCN(c3nc4ccccc4c(=O)n3-c3ccc(Cl)cc3)CC2)c1	-3.5%
53	O=C(Nc1cccc(O)c1)c1cc2nc(-c3ccc(Br)cc3)cc(C(F)(F)F)n2n1	-14%
54	Fc1cccc(Cl)c1Cn1c(-c2cccs2)nc2ccccc21	4.1%
55	CCCCNC(=O)C[C@@H]1C[C@@]2(C(=O)OCC)CCC=C2N(CCC2=CCCCC2)C1=O	-7.0%
56	O=C(COc1ccc([N+](=O)[O-])cc1)Nc1cccc2cccnc12	1.7%
57	COc1cc(C(=O)N2CCN(c3ccc(Nc4ccccc4)nn3)CC2)cc(OC)c1OC	-3.0%
58	CCOC(=O)c1ccccc1NC(=O)CSc1nc2ncccc2[nH]1	0.2%
59	COC(=O)c1ccccc1NC(=O)Cn1cc(S(=O)(=O)Cc2ccccc2F)c2ccccc21	38%
60	CC(Sc1oc(-c2cccs2)nc1S(=O)(=O)c1ccccc1)c1ccccc1 (centres undefined)	-4.6%

# (next part)
no.	Compound	ClpP mod
61	CCC(Sc1nc2ccccc2c2nc(CCn3c(C)nc4ccccc43)nn12)C(=O)Nc1ccc(F)cc1 (centres undefined)	-1.6%
62	CCc1ccc(S(=O)(=O)Nc2cc(-c3cn4ccccc4n3)ccc2C)cc1	?
63	COc1ccc(N2CC(NC(=O)CCc3ccccc3)CC2=O)cc1OC (centres undefined)	0.2%
64	CCOc1ccc2c(c1)NC(c1ccc(OCC)c(OCC)c1)=NC(c1ccc(F)cc1)=N2	-1.1%
65	O=C(NCCN1CCC(n2c(=O)[nH]c3ccccc32)CC1)c1ccccc1Cl	-2.9%
66	CCOC(=O)c1cc(-c2ccccc2)n(CCCC(=O)Nc2ccc(C)c(Cl)c2)c1C	-12%
67	COC(=O)[C@]12CCCCC=C1N(Cc1cccc3ccccc13)C(=O)[C@H](CC(=O)NCCCN1CCCC1=O)C2	0.2%
68	O=C(NCCCc1cnc[nH]1)NCCCN(Cc1ccc(Cl)cc1)c1ccc(Br)cn1	0.1%
69	CCCOc1ccc(C2C(=O)N(C3CCCCC3)CC(=O)N2C2CCCCC2)cc1OC (centres undefined)	-11%
70	CCOC(=O)c1c(-c2ccc(OC)c(OC)c2)csc1NC(=O)c1ccc(F)cc1	-6.4%
71	O=C(c1ccc2c(c1)OCCO2)N(Cc1cccnc1)c1nc2ccc(F)cc2s1	136%
72	COc1ccc(-c2[nH]c(-c3ccc(O)cc3)nc2-c2ccccc2)cc1	7.9µM*
73	Cc1cccc(C)c1OC(=O)CSc1nnc(CNC(=O)c2ccccc2)o1	0.8%
74	O=c1[nH]c2ccc(NCc3ccc(-c4ccccc4F)o3)cc2[nH]1	-22%
75	Cc1cc2nc(-c3ccc(Cl)cc3)c(Cc3ccsc3)n2c(C)c1Br	-3.6%

# Rewritten field by field: 4 of the compounds above
(48) O=C(NC1CC(=O)N(c2cccc(F)c2)C1)c1cccs1 (centres undefined)
  ClpP mod: 1.0%
(49) CCc1nc2ccc(C(=O)NCc3ccc(SC)cc3)cc2nc1CC
  ClpP mod: 1.0%
(50) Cc1cc[n+](C2CCCCC2)cc1
  ClpP mod: -7.9%
(51) Cc1ccc2oc(-c3cccc(NC(=O)Cc4ccc(Cl)cc4)c3)nc2c1
  ClpP mod: -5.3%

# The list goes on:
no.	Compound	ClpP mod
76	O=C(NCc1ccccc1Br)c1cnc2sc(N3CCCCCC3)nn2c1=O	?
77	COc1ccc(C(=O)NC(c2ccc(OC)c(OC)c2)c2cc(Cl)c3cccnc3c2O)cc1 (centres undefined)	1.5%
78	CCc1nn(CC(=O)NCc2ccco2)c(=O)c2cc3c(OC)cccc3n12	4.4%
79	Cc1nn2c(C)c(C(=O)NCc3ccco3)cnc2c1-c1ccccc1	1.2%
80	CCOC(=O)c1ccccc1NC(=O)C1CCN(c2ncnc3c2nc2n3CCCCC2)CC1	-4.9%
81	CC(NC(=O)c1c(O)nc2ccccn2c1=O)c1ccccc1 (centres undefined)	3.6%
82	Cc1ccc(Cl)c2sc(NC(=O)CS(=O)(=O)c3ccc(Cl)cc3)nc12	1.1%
83	COc1ccc(OC)c(NC(=O)C(NS(=O)(=O)c2ccc3c(c2)CCCC(=O)N3)C(C)C)c1 (centres undefined)	-0.4%
84	COc1cccc(CCNC(=O)c2cnc3sc(N4CCCC4)nn3c2=O)c1	4.3%
85	O=C(NC1(C(F)(F)F)NC(=O)N(CCc2ccccc2)C1=O)c1ccccc1Cl (centres undefined)	1.2%
86	CCOC(=O)c1c(NC(=O)c2ccc(S(=O)(=O)N3CCCC(C)C3)cc2)sc2c1CCN(C(C)C)C2 (centres undefined)	25%
87	Cc1cc2c(c3oc(=O)c4ccccc4c13)CN(Cc1ccc(F)cc1)CO2	-9.9%
88	COCCCNC(=O)c1ccc2c(c1)NC(=O)C(C(C)C)N2 (centres undefined)	-7.4%
89	COc1ccc(C)cc1NC(=O)C1CCN(S(=O)(=O)c2c(C)noc2/C=C/c2ccco2)CC1	-6.1%
90	O=C(CSc1nc(-c2ccccc2)nc2cc(=O)[nH]n12)Nc1ccccc1	3.4%
91	Cc1ccc(CNC(=O)CCC(=O)N2CC3CCCN3c3ccccc32)cc1 (centres undefined)	-0.3%
92	Cc1cccc(NC(=O)Cn2c(=O)n(Cc3ccccc3)c(=O)c3sc4ccccc4c32)c1	?
93	O=S1(=O)N[C@H](Cc2ccccc2)COc2cc(N3CCSCC3)ccc21	-4.1%
94	CCOC(=O)[C@]12CCCC=C1N(Cc1cccc3ccccc13)C(=O)[C@H](CC(=O)NCc1ccc(C)o1)C2	-2.5%
95	Cc1ccc(NC(=O)Cc2ccc(-n3c(C)nc4cccnc43)cc2)c(Cl)c1	-1.7%
96	Cc1ccc(-n2ncc(C(=O)N3CCCCC3)c2C2CCN(C(=O)OC(C)(C)C)CC2)cc1C	-0.9%
97	Cc1ccc(CNC(=O)CC(C)CC2=NS(=O)(=O)c3ccccc3N2)cc1 (centres undefined)	-3.3%
98	Cc1ccc2c(CC(=O)Nc3nnc(C(C)C)s3)coc2c1C	7.4%
99	COCCCn1c(=O)c2sccc2n2c(CCCC(=O)Nc3cc(C)cc(C)c3)nnc12	-7.5%
100	CCOC(=O)c1c(C)c(-c2ccccc2)n(CC(=O)Nc2cc(OC)cc(OC)c2)c1C	-6.7%
101	CCOC(=O)C1CCN(C(=O)Cn2c(=O)oc3cc(S(=O)(=O)N4CCC(C)CC4)ccc32)CC1	-0.8%
102	Nc1nc2ccccc2cc1C(=O)NCCCCc1ccccc1	2.8%
103	COc1ccccc1NC(=O)Cn1nc2c3cc(F)ccc3n(Cc3cccc(C)c3)cc-2c1=O	-0.6%
104	COc1cc(NC(=O)Cn2ncc3c([nH]c4ccc(C)cc43)c2=O)cc(OC)c1OC	-6.3%
105	CN(C)c1ccc(C(CNC(=O)COc2ccc(Cl)cc2)N2CCOCC2)cc1 (centres undefined)	0.5%
106	COc1ccccc1NC(=O)c1oc2ccccc2c1NC(=O)c1c(F)cccc1F	3.7%
107	CC(NC(=O)c1ccc2nc(Cc3ccccc3)oc2c1)c1ccccc1 (centres undefined)	-3.1%
108	O=C(CNC(=O)C1CCCCC1)OCC(=O)c1ccc2c(c1)CCC2	0.0%
109	Clc1ccc2c(ccc[n+]2CCc2ccccc2)c1	-9.2%
110	CCn1c(=O)c2sccc2n2c(CCCC(=O)Nc3ccc(OC)c(OC)c3)nnc12	-0.9%
111	COc1ccc2[nH]cc(CCNC(=O)Nc3c(C)cccc3C)c2c1	-18%

# Compound activity deposited in PubChem BioAssay by National Center for Advancing Translational Sciences (NCATS).
